Screening data (PubChem BioAssay)
TRPV1 PAM – enhances activation of the human vanilloid receptor TRPV1; TRPV1-expressing cells, Fluo-8 calcium influx, capsaicin EC20 potentiation; host cell line not named in the record; control for the full effect not named in the record; potentiation, % at 8.33 µM; 0.02% of 320,000 active; active means potentiation above 80%; inconclusive means 30% to 80%; inactive means below 30%; also: 0% is about no effect
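Fluo-8 calcium influx in TRPV1-expressing cells, kinetic read (ex 480/em 520 nm). Compound added and read 3 min for agonist activity, followed by capsaicin at EC20 final and 2 min further read for enhancement.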
D2 ag – agonists of human D2 dopamine receptor (beta-arrestin); DiscoveRx PathHunter D2 beta-arrestin, luminescence, 90 min; 100% = 57 uM dopamine signal; activation, % (no concentration beside the values); 0.084% of 360,000 active; AID 624465; in the data active = activation above about 40%; inconclusive = about 15% to 40%; inactive = below about 15%; also: compound concentration not given in the record; the text of the record calls up to 30% inactive
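DiscoveRx PathHunter D2 beta-arrestin cells (2,100/well) attached overnight, then compound-stimulated 90 min at 37 C in HBSS/10 mM HEPES/0.1% Tween-20 buffer; beta-galactosidase complementation read by luminescence after 1 h at ambient temperature. Dopamine 57 uM final (EC100) as control.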
Six1-Eya2 inh – Six1/Eya2 interaction inhibition | activity change, % (concentration not given with the values) | AlphaScreen GST-Six1/His-Eya2 binding, biochemical; hits give low values; control for the full effect not named in the record | 0.56% of 360,000 active; in the data active = activity change below about -65%; inconclusive = about -30% to -65%; inactive = above about -30%; also: % is scaled to controls: 0 for no effect and ±100 for the full control effect
Target sequence (O00167 whole entry, looked up): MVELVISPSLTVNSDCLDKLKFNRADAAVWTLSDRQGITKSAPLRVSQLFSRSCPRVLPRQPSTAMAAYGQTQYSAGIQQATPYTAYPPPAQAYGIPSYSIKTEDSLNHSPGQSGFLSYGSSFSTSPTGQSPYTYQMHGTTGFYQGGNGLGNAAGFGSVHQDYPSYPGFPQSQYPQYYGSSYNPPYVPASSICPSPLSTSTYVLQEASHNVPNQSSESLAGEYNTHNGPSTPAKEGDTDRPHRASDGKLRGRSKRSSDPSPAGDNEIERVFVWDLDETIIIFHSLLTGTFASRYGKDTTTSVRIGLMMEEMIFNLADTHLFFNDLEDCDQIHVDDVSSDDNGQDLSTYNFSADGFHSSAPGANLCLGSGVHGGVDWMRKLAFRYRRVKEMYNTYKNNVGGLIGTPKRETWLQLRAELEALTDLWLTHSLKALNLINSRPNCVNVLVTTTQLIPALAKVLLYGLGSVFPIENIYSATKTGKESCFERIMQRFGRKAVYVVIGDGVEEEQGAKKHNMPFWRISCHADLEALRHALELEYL
Target sequence (Q15475 whole entry, looked up): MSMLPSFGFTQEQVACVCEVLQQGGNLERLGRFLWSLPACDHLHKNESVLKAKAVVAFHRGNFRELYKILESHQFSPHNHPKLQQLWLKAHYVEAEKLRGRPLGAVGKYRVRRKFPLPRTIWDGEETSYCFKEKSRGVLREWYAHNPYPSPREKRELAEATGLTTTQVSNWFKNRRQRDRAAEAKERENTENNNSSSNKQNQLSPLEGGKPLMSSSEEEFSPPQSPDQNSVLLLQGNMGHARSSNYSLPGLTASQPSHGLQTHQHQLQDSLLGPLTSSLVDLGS
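GST-Six1 + His-Eya2 (5X stock: 250/500 nM); Tris pH 8.0, 300 mM NaCl, 0.05% BSA, 0.02% Tween 20; GSH donor/Ni acceptor beads; 1 h 37 °C dark; AlphaScreen readout.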
PINK1 modulator – modulators of PINK1 expression; PINK1 immunofluorescence, high-content cytometry, 24 h; Potency, µM (highest dose often 76.6 µM), for the others: at the highest dose activation (PINK1 increase), usual class: activators; 0.2% of 410,000 active; AID 624263; active = well fitted activation curve with a large enough effect; inconclusive = small, poorly fitted or top-dose-only effect; inactive = flat fitted curve, though single readings scatter; cell line not stated here;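 also: potency is read from the fitted curve at half-maximal effect; % of control where 0% means no effect; nearly all actives have a fitted effect of over 65% in size; a mitochondrial uncoupler was the plate control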
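A stable cell line was treated with compounds at 5 concentrations for 24 hours, with CCCP as control. PINK1 levels and mitochondrial localization were measured by immunofluorescence with mitochondrial, cell and nuclear markers after fixation, read by laser-scanning cytometry.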
CtBP-E1A blk – blocks the CtBP interaction with E1A; AlphaScreen GST-E1A/His-CtBP binding, 1536-well; hits give low values; control for the full effect not named in the record; activity change, % (test concentration not listed); 0.49% of 340,000 active; in the data active means activity change below about -65%; inconclusive means about -30% to -65%; inactive means above about -30%; also: % is scaled to controls: 0 for no effect and ±100 for the full control effect; compound concentration not given in the record
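Protein mix (5X: 125 nM each GST-E1A, His-CtBP) was incubated with pinned compound 2 h at 37 deg C in dark, in 50 mM Tris pH 8.0 buffer with 300 mM NaCl. Glutathione donor and nickel acceptor beads followed; AlphaScreen signal read after 1 h.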
Sfp PPTase inh – blocks B. subtilis Sfp PPTase activity. Q9F4F7. Potency, µM, inactives show max response, negative = inhibition, most hits filed as inhibitors. Biochemical Sfp PPTase activity, qHTS. 3.5% of 310,000 active. AID 1490; active = well fitted inhibition curve with a large enough effect; inconclusive = small, poorly fitted or top-dose-only effect, or another doubt; inactive = no such curve, though single readings can be large or run the other way;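 also: the enzyme is Sfp with the accession as filed and its product quenches rhodamine fluorescence; potency is read from the fitted curve at half-maximal effect; 0% = enzyme reaction without inhibitor and -100% = no enzyme wells; top concentration of the series not given in the record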
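Fluorescence-quenching assay: 15 nM Sfp-PPTase preincubated 15 min at room temperature with compound, then 5 uM rhodamine-CoA and 12.5 uM BHQ-2-labelled YbbR peptide added. Fluorescence (ex 525/em 598 nm) read at start and after 30 min; difference gives rate.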
D2 potentiator – positive allosteric modulators of human D2 dopamine receptor; DiscoveRx D2 beta-arrestin cells, luminescence, 90 min; 100% = 57 uM dopamine signal; potentiation, % (test concentration not listed); 0.23% of 360,000 active; P14416; active = potentiation of 50% or more; inconclusive = 30% to 50%; inactive = 30% or less;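 also: compound concentration not given in the record; tested on top of an EC20 dose of dopamine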
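PathHunter D2 cells, attached overnight at 37 deg C, received compound in DMSO plus dopamine at EC20 (50 nM final) for 90 min at 37 deg C. Beta-arrestin recruitment was read as luminescence after 1 h with detection reagent at ambient temperature.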
Numbers without * were called inactive; ? = inconclusive; . = no result given; & = joins results of further samples; [ ] = remark or other dose.

item	Molecule	TRPV1 PAM	D2 ag	Six1-Eya2 inh	PINK1 modulator	CtBP-E1A blk	Sfp PPTase inh	D2 potentiator
1	CCOc1ccc(CCNC(=O)Cn2c(=O)oc3ccccc32)cc1OCC	-2	2.5	-1	6.7%[38.3 µM]	-3	11%	-2
2	CC1(C(=O)OCC(=O)NCc2ccc(Cl)cc2)CC1(Cl)Cl (stereo not drawn)	.	-4.5	0	0.5%	4	.	-4
3	Cc1ccc(-c2cc(C(=O)N3CCN(c4ccc(O)cc4)CC3)c3ccccc3n2)cc1	.	6.1	?	0.2%	.	.	-3
4	CC(C)c1ccc(NC(=O)c2cc(S(=O)(=O)NCC3COc4ccccc4O3)ccc2F)cc1 (stereo not drawn)	6	4.9	11	15%	13	42%[activator]	-8
5	CN(C)CCCSc1nc2ccccc2s1	-4	-1.6	-11	0.6%	-15	35µM*	-8
6	Cc1ccc(S(=O)(=O)N2C[C@H]3n4c(=O)ccc(=O)n4C[C@H](OC(=O)Nc4c(C)noc4C)[C@@]3(O)C2)cc1	.	-3.5	3	0.2%	-1	.	-6
7	COc1ccccc1OC[C@H](O)CO	16	-0.2	4	3.8%	-11	5%&36%	12
8	Cc1ccc(CN(Cc2ccco2)C(=S)NCC(=O)O)cc1	-6	-2.1	3	0.5%	5	-20%	-5
9	COc1cccc(NC(=O)CN(C)CC(=O)NCc2ccc3c(c2)OCO3)c1	-2	5.9	0	0.2%	8	.	-3
10	OC(Cc1cccnc1)(c1ccccc1)c1ccccc1	.	-3.1	0	-2.5%	-1	.	-3
11	Cc1noc(C)c1S(=O)(=O)N(CC(=O)N1CCCCCC1)c1ccc(C(C)C)cc1	.	-3.5	-5	4.0%	9	18%	-8
12	CC1=C(C(=O)OCc2ccccc2)C(c2ccc(Br)cc2)NC(=O)N1CCCCCC(=O)O (stereo not drawn)	.	-1.0	0	0.7%	0	.	-19
13	OCCN(Cc1ccccc1)Cc1ccccc1O	-5	0.1	3	21%	-1	-13%	-5
14	Cc1ccc(Cc2nnc(SCC(=O)Nc3ccccc3)n(N)c2=O)cc1	-5	-1.4	-9	4.0%	2	.	-3
15	c1ccc(C(c2nnnn2C2CCCCC2)N2CCc3ccccc3C2)nc1 (stereo not drawn)	-2	-0.8	-16	?	-13	79µM*	-4
16	COC(=O)c1ccccc1S(=O)(=O)N1CCC(C(=O)OCC(=O)NCC(F)(F)F)CC1	5	-0.2	4	-0.3%	2	9%	-3
17	CC(C(=O)NCC1CCCO1)c1ccc([N+](=O)[O-])cc1 (stereo not drawn)	-7	7.2	2	0.3%	0	25%	1
18	CCOc1ccc(C(=O)N[C@H](C(=O)Nc2cccc(S(=O)(=O)N3CCCCC3)c2)C(C)C)cc1	8	-3.6	-2	1.6%	-2	13%	-10
19	Fc1ccccc1-c1nc2nc3ccccc3nc2n1CC1CCCO1 (stereo not drawn)	6	1.9	-2	2.4%	1	-4%	2
20	C/C(=N\NC(=O)c1ccc(O)cc1)c1ccc2c(c1)OCCO2	-8	-1.2	1	0.8%	-11	.	0
21	CSc1ccccc1C(=O)NCCSc1ccccc1	-5	-0.2	-1	2.9%[38.3 µM]	1	-4%	-8
22	O=C(C(F)C(F)(F)F)N1CCN(c2ccccc2)CC1 (stereo not drawn)	-19	-1.6	5	.	0	-1%	-12
23	CC1=CC(C)C(CN(CCC[N+](C)(C)C)C(=O)Nc2ccccc2)C(C)C1 (stereo not drawn)	.	-3.9	6	1.7%	12	-5%	-2
24	COc1ccccc1CNC(=O)CSc1cc(=O)n(C)c2ccccc12	1	0.3	18	0.4%&0.5%	0	13%	-7
25	Nc1ccc2c(S(=O)(=O)O)cccc2c1S(=O)(=O)O	.	3.7	-2	0.7%	0	.	1
26	COc1cccc(NC2CC(=O)N(CCc3ccccc3)C2=O)c1 (stereo not drawn)	-7	-4.5	-7	-2.3%	-3	11%	-12
27	O=C(c1sccc1-n1cccc1)N1CCCC1	9	-3.5	-5	2.9%	2	-3%	-3
28	Cc1ccccc1N1CCN(C2=NC(=O)/C(=C\c3cccs3)S2)CC1	-1	-3.1	-5	4.8%	-3	-20%	-4
29	O=C(CCSCc1ccc(Cl)cc1)NC1CCCC1	-7	-0.1	3	1.0%	5	1%	10
30	O=C(OCC(=O)N1CCOCC1)c1ccc(Cl)cc1[N+](=O)[O-]	2	-5.2	7	-1.0%	0	-5%	2

The list continues.
item	Molecule	TRPV1 PAM	D2 ag	Six1-Eya2 inh	PINK1 modulator	CtBP-E1A blk	Sfp PPTase inh	D2 potentiator
31	COc1ccc2c(c1)OC[C@H]1[C@H]2N2C(=O)CN(Cc3ccc(C)cc3)C(=O)[C@@]2(C)[C@H]1c1ccccc1	-6	-1.0	-12	0.8%	-10	.	-6
32	COc1ccc(N2C(=O)CCC(C(=O)NCc3cccnc3)C2c2ccc(OC)c(OC)c2)cc1 (stereo not drawn)	-8	-1.2	4	-3.0%	3	13%	16
33	Cc1cc(C)n(CCOc2ccc(Br)cc2)n1	14	-3.0	6	9.0%	16	4%	-3
34	Cc1nnc(SCCOc2ccccc2)s1	-3	-3.1	27	-3.0%	-12	-10%	2
35	COC(=O)c1ccc2nc(-c3cccc(Br)c3)c(Cc3cccc(F)c3)n2c1	.	.	18	-0.2%	-5	.	.
36	CCCc1nnc(SCc2ccc(OCC)cc2)n1N	7	-4.9	16	-2.0%	-1	2%	-8
37	Cc1cc(C)c(S(=O)(=O)c2ccc(F)cc2C)c(=O)[nH]1	17	-5.8	-1	1.5%	-3	12%	-7
38	COC(CNC(=O)c1ccc(N2CCCC2=O)cc1)OC	10	-2.4	4	1.4%	1	0%	-5
39	COc1ccccc1CNC(=O)COC(=O)/C=C/c1ccc2ccccc2n1	.	2.5	1	4.3%	-4	.	-1
40	COc1ccc(C)cc1-n1nnnc1SCC(=O)NC1CCCC1	-13	-0.6	1	1.7%	-4	.	-2
41	COC(=O)CSc1nnc(CNc2ccc(Cl)cc2)n1Cc1ccccc1	2	-1.5	-1	8.1%[38.3 µM]	-24	3%	-5
42	Cc1ccc(C(=O)Nc2cnc3ccccn3c2=O)cc1	-29	-1.3	5	-0.7%	7	12%	-2
43	CC1CCC(NC(=O)C2CCN(c3nc4ccccc4s3)CC2)CC1 (stereo not drawn)	-5	-3.1	2	16%	17	11%	-5
44	CC1=CC(C/C(C)=C/COc2ccc3ccc(=O)oc3c2)OC1=O (stereo not drawn)	-11	-0.1	2	-0.3%	1	6%	2
45	CC1(C(=O)Nc2cnc3ccccc3c2)CCN1C(=O)CCc1ccccc1 (stereo not drawn)	.	-2.3	1	3.1%	4	.	-5
46	CCOC(=O)c1sc(/N=C/c2c(O)ccc3ccccc23)cc1C	21	-2.3	-3	0.1%	-5	3%	-15
47	CCN(CC)c1c(C)nc2ccc(C(=O)Nc3cc(-c4ccccc4)ccc3OC)cn12	.	-2.0	-4	14%	-12	.	-6
48	CCCNC(=O)c1cc(C2CCCCN2S(=O)(=O)c2ccccc2)on1 (stereo not drawn)	.	-4.2	6	6.6%	0	.	12
49	COc1cc(/C=C/C(=O)O)cc(S(=O)(=O)Nc2ccc(S(=O)(=O)N3CCCCC3)cc2)c1OC	3	1.7	3	2.8%	9	.	-2
50	COc1ccc(NC(=O)c2cc(C3CCCCN3S(=O)(=O)Cc3ccccc3)on2)c(C)c1 (stereo not drawn)	.	0.4	-3	1.7%	-10	.	-4
51	Fc1ccccc1Nc1nc(-c2ccncc2)nc2ccccc12	-17	-5.1	4	1.3%	-2	-13%	-7
52	COc1ccc(C(=O)Cn2c(C(C)=O)nc3ccccc32)cc1	.	-1.6	-2	10%	0	.	-7
53	CC1(C)CC2CC(C)(CN2C(=O)Cc2ccccc2)C1 (stereo not drawn)	-17	-4.3	-3	0.1%	8	8%	-13
54	Cc1cccc(C(=O)OC(C)C(=O)NCC2CCCCC2)c1O (stereo not drawn)	-22	0.4	2	16%	6	.	2
55	Cc1ccc(N=CC2=C(O)CC(C)(C)CC2=O)nc1	-4	1.4	2	-1.1%	5	5%	-11
56	O=C(NNC(=S)NC(=O)c1ccccc1[N+](=O)[O-])c1ccc(Cl)cc1Cl	9	-0.3	-5	12%	-1	24%	-9
57	O=C(NNc1c(Cl)cc(Cl)cc1Cl)c1cccc([N+](=O)[O-])c1	7	-3.9	-5	1.4%	1	2%	-4
58	CCN(CC)CCCNC(=O)CSc1nc2c(c(C(F)(F)F)n1)CCc1ccccc1-2	0	-4.8	1	-0.7%	-4	7%	-20
59	Brc1ccc2nc(N3CCCC3)sc2c1	27	-3.0	15	-0.4%	4	12%	-5
60	CCC1CCCCN1CCCNC(=O)c1ccc2c(c1)NC(=O)CS2 (stereo not drawn)	3	1.3	1	0.2%	1	11%	-17
61	COc1ccc([N+](=O)[O-])cc1NCc1ccco1	16	-1.0	-6	14%	2	7%	-9

Exported with values under each structure: part of the list above.
Value order: TRPV1 PAM | D2 ag | Six1-Eya2 inh | PINK1 modulator | CtBP-E1A blk | Sfp PPTase inh | D2 potentiator
59: Brc1ccc2nc(N3CCCC3)sc2c1
  27 | -3.0 | 15 | -0.4% | 4 | 12% | -5
56: O=C(NNC(=S)NC(=O)c1ccccc1[N+](=O)[O-])c1ccc(Cl)cc1Cl
  9 | -0.3 | -5 | 12% | -1 | 24% | -9
45: CC1(C(=O)Nc2cnc3ccccc3c2)CCN1C(=O)CCc1ccccc1 (stereo not drawn)
  . | -2.3 | 1 | 3.1% | 4 | . | -5
